Assay outcomes as filed in PubChem.
RE007 growth inh: less growth of the S. pombe RE007 Vpr strain; S. pombe RE007 Vpr strain, BacTiter-Glo ATP luminescence, 24 h; control for the full effect not named in the record; Potency, µM (series often up to 92.2 µM), inactives show at the highest dose activity change, negative = less growth; hit rate 0.21% among 360,000; AID 651644; active = well fitted falling curve with a large enough effect; inconclusive = small, poorly fitted or top-dose-only effect; inactive = no such curve, though single readings can be large or run the other way;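 also: % is scaled to controls: 0 for no effect and ±100 for the full control effect; nearly all actives have a fitted effect of over 50% in size; the assay follows cell death caused by Vpr and the record does not say whether a fall means rescue or toxicity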
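Fission yeast strain RE007, carrying one chromosomally integrated HIV-1 vpr copy, was seeded at OD 0.01 in PMG+AL medium with 23 nL pinned compound. After 24 h at 30 °C and 99% humidity, viability was read by BacTiter-Glo luminescence.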
NS1 inh: blocks influenza NS1 protein function. S. cerevisiae slowed by influenza A NS1, growth recovery by OD600. Potency, µM (doses to about 46.1 µM), without a hit: at the highest dose activity, positive = more growth. hit rate 0.4% among 270,000. AID 2326; also: actives are rising curves; nearly all actives have a fitted effect of over 50% in size
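Read-out: OD600 growth recovery of NS1-expressing budding yeast. Cells grown overnight at 30C in -URA glucose medium, washed, resuspended and diluted 1:100 in 2% galactose assay medium, pH 6.0. Same strain lacking NS1 served as positive control.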
Lassa entry inh: blocks Lassa virus binding to or entry into cells; Lassa virus pseudotype entry inhibition, cell reporter; control for the full effect not named in the record; hit rate 1.2% among 300,000; AID 540256; Potency, µM (series often up to 37.9 µM), for inactives: at the highest dose activity change, negative = inhibition, most hits filed as inhibitors; active means well fitted inhibition curve with a large enough effect; inconclusive means small, poorly fitted or top-dose-only effect, or effect the other way; inactive means flat fitted curve, though single readings scatter; tested in HEK293 cells; also: % is scaled to controls: 0 for no effect and ±100 for the full control effect; nearly all actives have a fitted effect of over 50% in size; luciferase read-out
StopGo reporter: lowers the luciferase signal of an FMDV 2A StopGo reporter; human cells with a luciferase reporter of 2A StopGo recoding; control for the full effect not named in the record; Potency, µM (titrated, usually from 57.9 µM), without a hit: at the top dose signal change, negative = less light; hit rate 1.2% among 410,000; AID 1159524; active = well fitted falling curve with a large enough effect; inconclusive = small, poorly fitted or top-dose-only effect; inactive = no such curve, though single readings can be large or run the other way; tested in HEK293T cells; also: % is scaled to controls: 0 for no effect and ±100 for the full control effect; nearly all actives have a fitted effect of over 45% in size; luciferase light after 4 h
SARS PLP yeast: SARS-CoV PLP inhibition in yeast; hit rate 0.19% among 330,000; S. cerevisiae expressing SARS-CoV PLpro, growth rescue; control for the full effect not named in the record; Potency, µM (highest dose often 32.9 µM), for inactives: at the highest dose activity, positive = growth rescue; AID 485353; also: 0% is about no effect; nearly all actives have a fitted effect of over 55% in size; growth read by luminescence after 48 h
Cruzain noTriton: cruzain (T. cruzi) inhibition without detergent; P25779; purified cruzain, Z-FR-AMC fluorescence, no detergent; Potency, µM, inactives show max response, negative = inhibition, usual class: inhibitors; hit rate 2.3% among 200,000; AID 1476; active = well fitted curve in the direction sought with a large enough effect; inconclusive = small, poorly fitted or top-dose-only effect, or another doubt; inactive = no such curve, though single readings can be large; an effect the other way counts as inactive or inconclusive;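 also: plate controls were enzyme without inhibitor for no effect and buffer without enzyme for full effect; nearly all actives have a fitted effect of over 40% in size; top concentration of the series not given in the record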
Target sequence (P25779 123-467 limits assumed): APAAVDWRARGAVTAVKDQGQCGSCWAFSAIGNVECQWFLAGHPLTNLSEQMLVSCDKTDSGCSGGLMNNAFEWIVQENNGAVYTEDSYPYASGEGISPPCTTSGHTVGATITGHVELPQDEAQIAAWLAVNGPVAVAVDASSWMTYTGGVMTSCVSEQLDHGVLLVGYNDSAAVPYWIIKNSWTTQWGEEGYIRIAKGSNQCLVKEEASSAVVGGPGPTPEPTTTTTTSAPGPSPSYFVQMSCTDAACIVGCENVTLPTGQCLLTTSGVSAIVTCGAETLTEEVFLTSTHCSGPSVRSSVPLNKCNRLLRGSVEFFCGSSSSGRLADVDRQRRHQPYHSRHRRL
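Detergent-free condition (0.00005% Triton X-100) in acetate buffer pH 5.5 with DTT. 1.5 nM enzyme and compound were pre-mixed 15 min, then 2 uM Z-FR-AMC substrate added; reaction progress from fluorescence change between first and third reads (60 s).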
Cruzain inh Det: cruzain (T. cruzi) inhibition with detergent; hit rate 0.43% among 200,000; purified cruzain, Z-FR-AMC fluorescence, 0.01% Triton; P25779; Potency, µM, without a hit: max response, negative = inhibition, usual class: inhibitors; active = well fitted curve in the direction sought with a large enough effect; inconclusive = small, poorly fitted or top-dose-only effect, or another doubt; inactive = no such curve, though single readings can be large; an effect the other way counts as inactive or inconclusive;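 also: plate controls were neutral wells for no effect and buffer without enzyme for full effect; nearly all actives have a fitted effect of over 40% in size; top concentration of the series not given in the record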
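Steps: dispense cruzain (1.5 nM final) in acetate buffer pH 5.5 with DTT and 0.01% Triton X-100; pin-transfer compounds; incubate 15 min RT; add Z-FR-AMC (2 uM final); read fluorescence every 30 s, using the 60 s intensity change.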
MARV entry inh: blocks Marburg virus binding to or entry into cells. Marburg virus pseudotyped entry inhibition, cell reporter; control for the full effect not named in the record; about a third of the inactives were read at about 46 µM. Potency, µM (top dose mostly 37.8 µM), inactives show at the highest dose activity change, negative = inhibition, hits mostly inhibitors. hit rate 1.8% among 300,000; active = well fitted inhibition curve with a large enough effect; inconclusive = small, poorly fitted or top-dose-only effect, or effect the other way; inactive = flat fitted curve, though single readings scatter; tested in HEK293 cells; about a fifth of its hits are not listed in these tables; also: % is scaled to controls: 0 for no effect and ±100 for the full control effect; luciferase read-out
* marks the source's active call; other numbers are inactive results; ? = inconclusive; · = not tested or not shown; & = joins results of further samples; [ ] = remark or other dose. Unless noted, calls follow the shape of the dose curve; as a rule, active means well fitted rising curve with a large enough effect; inconclusive means small, poorly fitted or top-dose-only effect; inactive means no such curve, though single readings can be large or run the other way. Potency is read from the fitted curve at half-maximal effect.

SMILES	RE007 growth inh	NS1 inh	Lassa entry inh	StopGo reporter	SARS PLP yeast	Cruzain noTriton	Cruzain inh Det	MARV entry inh
CCOC(=O)[C@@H]1[C@H]2COc3cc(OC)ccc3[C@@H]2N2C(=O)N(c3ccc(C(F)(F)F)cc3)C(=O)[C@]12C	-1%	11%	·	-29%	-3%	·	·	·
Cc1nn(-c2ccccc2)c(=O)c2noc(C)c12	6%	2%	-2%	-5%	0%	·	·	4%
O=C(COc1ccccc1)NCc1ccco1	10%	·	-1%[46.1 µM]	-3%	·	·	·	0%[46.1 µM]
O=C(CCC1COc2ccccc2O1)NC1CCCCC1 (stereo not given)	-2%	-8%	1%	59%[activator]	5%	-10%	2.8%	?
COc1cc(OC)c(C(=S)N2CCCC2)cc1OC	-6%	16%	·	-6%	2%	·	·	·
Cc1nc(S(=O)(=O)c2cccc(Cl)c2)nc2c1CCC2	-5%	-5%	-3%	-7%	1%	-4%	2.4%	-27%
Cc1ccccc1C(=O)N(Cc1ccc(N(C)C)cc1)Cc1ccco1	·	·	-8%[46.1 µM]	-7%	·	-23%	-8.2%	-5%[46.1 µM]
CC1CN(C(=O)CCC(=O)NCCCc2ccccc2)c2ccccc2O1 (stereo not given)	-3%	-11%	·	-22%	-2%	·	·	·
O=C(OCC(=O)N1CCCC1)c1cc(Cl)ccc1Cl	2%	2%	2%	29%	-2%	·	·	2%
Cc1cc(C)c2nc(-c3ccncc3)cc(C(=O)N3CCN(Cc4ccccc4Cl)CC3)c2c1	-15%	-83%	?	-17%	-16%	·	·	-27%[46.1 µM]
Cc1ccc(C(=O)NCCCNc2ccccc2[N+](=O)[O-])cc1	13%	-47%	-20%[46.1 µM]	-15%	-1%	·	·	?
O=[N+]([O-])c1cc(-c2cnc3ccccc3n2)ccc1Oc1ccc(F)cc1	-6%	-19%	18%	24%	-1%	-1%	4.6%	16%
CCC(C)(C)NC(=O)C(c1ccc(OC)cc1)N(Cc1ccc(OC)cc1)C(=O)CCC(=O)Nc1cc(C)on1 (stereo not given)	1%	5%	-16%	8%	-3%	·	·	-3%[46.1 µM]
Cc1ccc(C)c(NC(=O)c2cnc3sc(N4CCOCC4)nn3c2=O)c1	·	·	10%[46.1 µM]	-16%	·	7%	-1.3%	·
O=C(CSc1cn(CCNC(=O)c2cccs2)c2ccccc12)NCC1CCCO1 (stereo not given)	10%	-44%	·	-8%	-5%	-2%	-1.9%	6%
COc1ccc(-n2c(SCC(=O)Nc3ccc(C(=O)O)cc3)nnc2-c2ccccc2)cc1OC	-6%	4%	·	3%	-1%	·	·	·
COc1ccc(CNCc2ccc3ccccc3c2)c(OC)c1	-17%	-15%	·	-17%	?	·	·	·
Cc1cc(C)cc(NC(=O)C2C3C=CC4(O3)C2C(=O)N(CCCN(C)C)C4C(=O)NC2CCCC(C)C2C)c1 (stereo not given)	14%	-4%	0%	-4%	-1%	·	·	-17%[46.1 µM]
Cc1ccccc1OCCCC(=O)Nc1ccccc1C(F)(F)F	-3%	-14%	6%	3%	-3%	-2%	-2.8%	1%[46.1 µM]
NC(=O)c1ccc(NC(=O)CCCN2C(=O)NC3(CCCC3)C2=O)cc1	30%	·	-5%	-7%	0%	·	·	12%
O=C(CN(Cc1ccc(Br)cc1)S(=O)(=O)c1ccccc1)NCc1cccnc1	17%	1%	3%	-13%	-5%	·	·	16%
COc1ccc(-c2noc(CN(C(=O)c3c(-c4ccccc4Cl)noc3C)C(C)C)n2)cc1	4%	4%	?	0%	-10%	22%	-2.6%	-18%
CCOC(=O)c1c(S(=O)(=O)Nc2ccccn2)c(C)n(C)c1C	-2%	4%	·	43%[activator]	3%	·	·	·
N#Cc1ccc(S(=O)(=O)N2CCN(C(=O)C3CC(=O)N(c4ccc5c(c4)OCCO5)C3)CC2)cc1 (stereo not given)	7%	·	11%	-8%	3%	·	·	?
Nc1nnn(CC(=O)N/N=C/C=C/c2ccccc2)n1	10%	5%	24%	23%	2%	·	·	18%[46.1 µM]
O=C(c1cc(=O)[nH]c2ccccc12)N1CCN(c2cccc(C(F)(F)F)c2)CC1	3%	·	-29%	?	0%	·	·	-10%[46.1 µM]
COc1cccc2sc(N(Cc3cccnc3)C(=O)c3ccco3)nc12	·	·	-14%[46.1 µM]	-20%	·	?	-6.5%	·
CC1=C(c2ccc(Cl)cc2)S(=O)(=O)NC1=NCCCN1CCN(c2cc(C)ccc2C)CC1	·	·	-17%[46.1 µM]	?	·	19%	-6.5%	-12%[46.1 µM]
COc1ccc(C2CC(=O)c3cnc(NC(=O)c4cc(OC)cc(OC)c4)nc3C2)cc1 (stereo not given)	-1%	-117%	-13%	0%	1%	5%	4.2%	-4%
Cc1cnc(C(=O)OCC(=O)Nc2cccc(C)c2C)cn1	14%	·	?	-1%	-1%	·	·	0%
CCc1ccccc1NC(=O)CCCN1C(=O)c2cccnc2C1=O	-18%	-3%	9%	-6%	2%	·	·	?
CCCCn1c(N)c(N(CCOC)C(=O)c2cccc(S(=O)(=O)N(C)c3ccccc3)c2)c(=O)[nH]c1=O	-5%	·	-10%	-10%	-3%	·	·	-25%
CCOc1ccc2c(c1)nc(C)n2C	-16%	1%	11%[46.1 µM]	-9%	0%	·	·	20%[46.1 µM]
O=C(CCNC(=O)c1ccc(Br)cc1)NNC(=O)c1ccccc1O	5%	·	-16%	21%	-2%	·	·	?
OC1(c2cccc(C(F)(F)F)c2)CCN(Cc2nnnn2Cc2ccccc2)CC1	13%	3%	-28%[46.1 µM]	-17%	0%	·	·	?
COc1cc(C(=O)OCCN2CCOCC2)ccc1O	-13%	7%	4%	10%	8%	-2%	4.7%	-2%[46.1 µM]
O=C(NN1CCOCC1)c1cc(-c2ccc(Br)cc2)nc2ccccc12	-5%	6%	0%	0%	6%	?	-4.8%	12%
COCC1CCN(Cc2cn[nH]c2-c2ccc(OC)c(F)c2)C1 (stereo not given)	0%	6%	·	18%	0%	·	·	·
CCN(CC)S(=O)(=O)c1ccc2nc(NC(=O)c3cccnc3)sc2c1	·	·	6%[46.1 µM]	-9%	·	29%	-4.4%	·
CCC(=O)Nc1ccc(Br)cn1	6%	0%	?	-14%	0%	·	·	-17%[46.1 µM]
COCC1=C(C(=O)OC)C(c2ccco2)n2ncnc2N1 (stereo not given)	7%	-1%	-1%	-7%	1%	·	·	?
CC(OC(=O)c1cccs1)C(=O)NCCc1ccccc1 (stereo not given)	-13%	4%	7%	-8%	-1%	·	·	12%[46.1 µM]
CC1CCN(C(=O)CCc2nc3cc(S(=O)(=O)N(C)C)ccc3n2C)CC1	0%	2%	4%	-12%	13%	16%	-6.7%	-15%
COCCNC(=O)CN(C)S(=O)(=O)c1ccc(Br)cc1	-14%	4%	-8%	-11%	28%	-11%	-0.7%	?
CCn1cc(C(=O)NC(=S)Nc2sc3c(c2C(=O)OC)CCCCCC3)cn1	15%	10%	?	4%	?	6%	3.3%	?
O=C(NCc1ccncc1)C(=O)Nc1nc(C23CC4CC(CC(C4)C2)C3)cs1	-5%	9%	?	?	-25%	?	-9.0%	?
CCOC(=O)CCc1c(C)c2ccc3c(c2oc1=O)CN(CCCO)CO3	-8%	9%	·	-23%	0%	·	·	·
Cc1c(NC(=O)CSc2ncn[nH]2)c(=O)n(-c2ccccc2)n1C	-6%	14%	7%	-12%	10%	4%	8.6%	-10%
Cc1ccccc1NC(=O)c1sc(Cl)nc1C	1%	-1%	1%	-2%	5%	1%	-3.6%	-4%
CCOC(=O)c1ccc(S(=O)(=O)Nc2cc(C(C)(C)C)no2)cc1	10%	-28%	1%	5%	-2%	10%	2.9%	-2%
COC(=O)c1cc(-c2ccc(OC)cc2)nc2nc(SC)[nH]c(=O)c12	81%	-13%	?	43%[activator]	2%	·	·	?
O=C(Nc1ccccc1)Nc1nnc(Cc2ccc(F)cc2)s1	-7%	2%	·	-9%	2%	·	·	·
CN(CCOc1ccccc1)CC(O)COCc1ccccc1F (stereo not given)	8%	-1%	24%[46.1 µM]	-18%	0%	·	·	?
Cc1c(C(c2ccc(Cl)cc2Cl)c2c(O)c3ccccc3oc2=O)c(=O)n(-c2ccccc2)n1C (stereo not given)	4%	·	4%[46.1 µM]	16%&34%	0%	?	-8.2%	-10%&-10%[46.1 µM]
Cc1ccc(OCC(=O)OCC(=O)Nc2sccc2C(N)=O)cc1C	-10%	-3%	9%	-22%	-33%	12%	-6.0%	0%
CN1CCN(C(=O)c2cnn3c(C(F)(F)F)cc(-c4ccc5c(c4)OCO5)nc23)CC1	-1%	1%	3%	3%	0%	3%	-5.2%	-24%
CNC(=O)CSc1nc(-c2ccccc2)c(-c2ccccc2)o1	-14%	·	-4%	-6%	-4%	·	·	-26%
CSc1cccc(CN2CCC(CO)(Cc3cccc(C(F)(F)F)c3)CC2)c1	-28%	-2%	-22%	?	0%	·	·	?
CCOC(=O)N1CCC(NC(=O)C2CCCN(S(=O)(=O)c3cccnc3)C2)CC1 (stereo not given)	-5%	-2%	1%	-17%	14%	-18%	-0.2%	0%
Nc1nc(Nc2ccccc2)nc2c1ncn2[C@@H]1O[C@@H](CO)[C@H](O)[C@H]1O	·	·	·	-8%	·	1%	-1.7%	11%

Carrying on.
SMILES	RE007 growth inh	NS1 inh	Lassa entry inh	StopGo reporter	SARS PLP yeast	Cruzain noTriton	Cruzain inh Det	MARV entry inh
O=C(CN1C(=O)COCC1=O)N1CCOCC1	-13%	9%	-1%	12%	8%	10%	5.2%	3%
Cc1nc(NC(=S)NC(=O)c2cccs2)sc1C(=O)N(C)C	-23%	-1%	10%	42%[activator]	-8%	-2%	3.4%	24%
CC(=O)Nc1ccc(NC(=O)COc2ccc([N+](=O)[O-])cc2)cc1	-17%	·	7%	-5%	-1%	·	·	-2%
O=C(N/N=C/c1ccccc1O)C1CC(=O)N(c2ccc(Cl)cc2)C1 (stereo not given)	-10%	3%	·	-9%	3%	·	·	·

Rows are unselected; about 4.7% have a hit in one of these screens.
